Screening results (PubChem)
B2AR ag: agonists of human beta-2 adrenergic receptor inducing internalization; P07550; Am2.2-beta2AR cells, FAP receptor internalization, flow cytometry; reference of the scale not given here; response, % (concentration not given with the values); actives 0.43% (n = 340,000);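 active = response above a set limit, near 3 SD of response in nonfluorescent compounds, cut at about 42% in these data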;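 note: stock transfer was 100 nL into about 11 µL; a reference agonist was the positive control; negative values mostly stem from fluorescent compounds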
HNF4A DNA FP: change in binding of human HNF4 alpha to DNA. P41235. AID 1224865. actives 0.3% (n = 360,000). HNF4a-FITC DNA binding, fluorescence polarization, 1 h. activity change, % at 10 µM; in the data active = activity change above about 30%, passing the limit was not always enough;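 note: controls were the assay level and a saturating level of protein; the project sought stronger binding though the title names inhibitors; some compounds called inactive have numbers as strong as hits; positive values seem to mean higher polarization but the record does not say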
Vif A3G: HIV-1 Vif–A3G interaction blockers – biochemical, TR-FRET, GST-Vif 1-94, biotin-A3G peptide, dose response retest, primary screen (AID 1117319) | TR-FRET GST-Vif / biotin-A3G peptide binding; higher % means a stronger effect; test concentration not given here; strong numbers were not always called active | actives 0.57% (n = 260,000) | one-dose inhibition, %; IC50 in µM for titrated hits;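 active = above the screen mean plus three standard deviations and confirmed in dose response; inconclusive = results disagree or hit not tested in dose response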;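 note: Vif residues 1-94 fused to GST binding biotinylated APOBEC3G peptide 110-148; 0% = full assay without inhibitor and 100% = GST in place of GST-Vif; retest series ran down from 100 µM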
Ecoli growth: inhibitors of Escherichia coli growth; OD600, 23 h; hits give low values; OD600 absorbance (concentration not given with the values); actives 0.21% (n = 330,000);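 active = OD600 absorbance below the run mean of sample wells minus 3.6 SD, in any replicate, cut at about 0.56 in these data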;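 note: stock transfer was 300 nL into about 60 µL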
Bfl-1 A1 inh: inhibitors of the anti-apoptotic protein A1, read as caspase activation. actives 0.066% (n = 330,000). caspase activation, % (no concentration beside the values). AID 2462. MEF A1-2A-BIM cells, Caspase-Glo 3/7 luminescence, 3 h; percent of clofoctol response, vehicle zero;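 active = over half of replicate activation scores above 10%, or exactly half above 10 with the replicate mean above 10; inconclusive = replicate mean below 10 yet half the replicates above 10; inactive = over half of replicates below 10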;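 note: wells of about 30 µL received 50 nL stock; many hits fall short of the cut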
UCH37 inh: inhibitors of human deubiquitinating enzyme UCH37; purified proteasome/UCH37, Ub-AMC cleavage fluorescence; inhibition, % (test concentration not listed); AID 588478; actives 0.33% (n = 330,000); Q9Y5K5;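 active = mean of two replicates above 20%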;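 note: 0% = compound-free wells with enzyme and 100% = wells lacking proteasome; stock transfer was 100 nL into about 20 µL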
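Material: Human UCH37 enzyme supplied as purified proteasome complex | Schedule: 30 min preincubation with enzyme, 25 min cleavage at room temperature | Detection: AMC fluorescence 355/460 nm | Measure: % inhibition of Ub-AMC cleavage fluorescence | Controls: Wells without proteasome as full block, compound-free enzyme plus substrate as uninhibited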
LANA-H2B inh: blocks KSHV LANA binding to histone H2A/H2B. inhibition, % (concentration not given with the values). actives 0.6% (n = 320,000). AID 2629. cell-free LANA-H2A/H2B peptide, fluorescence polarization; in the data active = inhibition mostly above about 10%, no sharp cut-off; inactive = mostly below about 6.7%;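 note: stock transfer was 7.5 nL into about 10 µL; 0% = median of vehicle wells and 100% = median of positive control wells; one replicate is shown; the record names a cut of 25% in any replicate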
Target sequence (Q9QR71 whole entry, looked up): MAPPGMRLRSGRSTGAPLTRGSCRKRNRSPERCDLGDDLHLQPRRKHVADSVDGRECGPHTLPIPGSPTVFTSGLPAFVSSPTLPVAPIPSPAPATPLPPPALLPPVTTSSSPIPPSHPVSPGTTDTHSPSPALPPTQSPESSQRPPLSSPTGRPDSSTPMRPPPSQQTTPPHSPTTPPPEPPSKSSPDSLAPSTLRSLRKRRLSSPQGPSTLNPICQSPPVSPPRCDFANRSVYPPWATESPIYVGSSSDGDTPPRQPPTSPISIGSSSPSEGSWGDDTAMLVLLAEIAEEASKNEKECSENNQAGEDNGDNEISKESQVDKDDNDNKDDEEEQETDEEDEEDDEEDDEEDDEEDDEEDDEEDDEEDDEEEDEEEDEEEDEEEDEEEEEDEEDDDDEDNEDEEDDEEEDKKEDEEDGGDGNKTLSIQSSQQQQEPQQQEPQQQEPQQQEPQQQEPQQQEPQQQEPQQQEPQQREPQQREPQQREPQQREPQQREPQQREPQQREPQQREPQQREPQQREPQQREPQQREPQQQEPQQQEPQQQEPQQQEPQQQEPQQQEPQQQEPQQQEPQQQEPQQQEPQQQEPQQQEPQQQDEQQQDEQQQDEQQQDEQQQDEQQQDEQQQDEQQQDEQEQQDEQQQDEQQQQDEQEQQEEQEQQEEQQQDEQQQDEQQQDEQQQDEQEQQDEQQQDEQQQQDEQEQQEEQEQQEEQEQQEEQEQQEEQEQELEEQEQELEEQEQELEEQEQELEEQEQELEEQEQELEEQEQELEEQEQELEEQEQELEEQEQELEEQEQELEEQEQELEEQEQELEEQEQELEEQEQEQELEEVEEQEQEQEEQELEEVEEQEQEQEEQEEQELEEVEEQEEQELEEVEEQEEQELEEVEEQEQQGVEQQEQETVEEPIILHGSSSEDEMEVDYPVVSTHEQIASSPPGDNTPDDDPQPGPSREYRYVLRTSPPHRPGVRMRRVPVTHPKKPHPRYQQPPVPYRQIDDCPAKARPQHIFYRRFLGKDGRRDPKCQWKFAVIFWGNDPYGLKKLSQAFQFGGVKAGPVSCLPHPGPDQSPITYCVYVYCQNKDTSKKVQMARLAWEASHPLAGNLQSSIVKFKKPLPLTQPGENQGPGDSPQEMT
* marks the source's active call; other numbers are inactive results; & = joins results of further samples. Not a hit list; 2.1% or so of the library scored in one or more.

Screening Cc1cc(OC(C)C(=O)Nc2ccncc2)ccc1Cl (stereo not given) returned B2AR ag 3.0, HNF4A DNA FP 0.5, Vif A3G -3.5%, Ecoli growth 0.652, Bfl-1 A1 inh 0.3, UCH37 inh 1.7 and LANA-H2B inh -7.5.
Screening CC1CCCC(C)N1C(=O)CSc1nc2ccccc2s1 (stereo not given) returned B2AR ag 5.1, HNF4A DNA FP 0.4, Vif A3G 0.1%, Ecoli growth 0.731, Bfl-1 A1 inh 0.0, UCH37 inh 4.8 and LANA-H2B inh 0.6.
CCN(CC)S(=O)(=O)c1cc(NC(=O)CSc2nnc(-c3cccs3)o2)ccc1C was read as B2AR ag 13.0, HNF4A DNA FP -1.5, Vif A3G inconclusive, Ecoli growth 0.71, Bfl-1 A1 inh 0.7, UCH37 inh 1.1 and LANA-H2B inh -7.3.
Screening Cc1cccc(N2C(=O)C(CC(=O)Nc3cccc(F)c3)N(CCc3ccncc3)C2=O)c1 (stereo not given) returned B2AR ag 7.5, HNF4A DNA FP -2.6, Vif A3G 4.7%, Ecoli growth 0.727, Bfl-1 A1 inh 1.0, UCH37 inh 2.5 and LANA-H2B inh -0.7.
Screening CCN(CC)Cc1c(C(=O)N/N=C/c2ccccn2)nnn1-c1nonc1N returned B2AR ag -17.2, HNF4A DNA FP 2.2, Bfl-1 A1 inh -0.2 and LANA-H2B inh -0.8.
Screening COc1cc(/C=N/n2cnnc2)ccc1OCC(=O)N1CCOCC1 returned B2AR ag -3.1, HNF4A DNA FP 5.0, Vif A3G 17.4%, Bfl-1 A1 inh -0.2 and LANA-H2B inh -4.6.
`CCCc1noc2c1C(c1cc(Br)ccc1F)C(C#N)=C(N)N2` (stereo not given) gave B2AR ag -0.7, HNF4A DNA FP -0.6, Vif A3G 1.6%, Ecoli growth 0.707, Bfl-1 A1 inh 0.3, UCH37 inh 1.4 and LANA-H2B inh -2.0.
Screening CCOC(=O)c1c(S(=O)(=O)N2CCCC(C(=O)Nc3ncccc3C)C2)c(C)n(C)c1C (stereo not given) returned B2AR ag 4.1, HNF4A DNA FP 3.2, Ecoli growth 0.7, Bfl-1 A1 inh 0.0, UCH37 inh -0.6 and LANA-H2B inh -0.7.
`O=C(COC(=O)c1cc(S(=O)(=O)N2CCc3ccccc3C2)ccc1Cl)NCc1ccco1` gave B2AR ag 16.1, HNF4A DNA FP -0.5, Vif A3G 6.5%, Ecoli growth 0.688, Bfl-1 A1 inh 0.3, UCH37 inh 4.3 and LANA-H2B inh -4.6.
`Cc1ccc(NS(=O)(=O)c2ccc(C(=O)N3CCN(S(=O)(=O)c4ccccc4)CC3)cc2)cc1` gave B2AR ag 13.0, HNF4A DNA FP 0.4, Vif A3G 12.6%, Ecoli growth 0.656, Bfl-1 A1 inh 0.1, UCH37 inh 5.4 and LANA-H2B inh -1.7.
`CCOC(=O)c1c(C)nc2sccn12` gave B2AR ag -1.9, HNF4A DNA FP 8.9, Vif A3G 7.2%, Ecoli growth 0.644, Bfl-1 A1 inh 0.2, UCH37 inh 4.1 and LANA-H2B inh 0.2.
For Nc1c(N(Cc2ccccc2)C(=O)COc2ccc([N+](=O)[O-])cc2)c(=O)[nH]c(=O)n1Cc1ccccc1 the results were B2AR ag -1.7, HNF4A DNA FP -2.1, Ecoli growth 0.717 and UCH37 inh 3.5.
For Cc1ccc(C(=O)NC(=S)Nc2ccc3[nH]c(=O)[nH]c3c2)c(C)c1 the results were B2AR ag -4.8, HNF4A DNA FP 0.7, Vif A3G 30.9%, Ecoli growth 0.678, Bfl-1 A1 inh 0.3, UCH37 inh 0.6 and LANA-H2B inh 7.1.
`CSCCC(N=C(NS(=O)(=O)c1ccc(Br)cc1)c1ccccc1)C(=O)O` (stereo not given) gave B2AR ag 13.7, HNF4A DNA FP -3.4, Vif A3G 13.1%, Ecoli growth 0.703, Bfl-1 A1 inh -0.4, UCH37 inh 4.0 and LANA-H2B inh 0.5.
Screening Cc1cnc(C(=O)OCc2ccc(Br)cc2F)cn1 returned B2AR ag 6.7, HNF4A DNA FP 0.1, Ecoli growth 0.684, Bfl-1 A1 inh 0.7, UCH37 inh 3.1 and LANA-H2B inh -5.0.
For COc1cc(NC(=O)C2Cc3ccccc3CN2S(C)(=O)=O)cc(OC)c1 (stereo not given) the results were B2AR ag -2.9, HNF4A DNA FP -8.2, Vif A3G 3.2%, Ecoli growth 0.689, Bfl-1 A1 inh -0.3, UCH37 inh 1.5 and LANA-H2B inh 1.3.
CCOC(=O)N1CCN(c2c(F)cc3[nH]c(=S)[nH]c3c2Br)CC1 was read as B2AR ag -15.5, HNF4A DNA FP 1.6, Vif A3G 4.7%, Ecoli growth 0.688, Bfl-1 A1 inh -0.3, UCH37 inh 1.3 and LANA-H2B inh 3.6.
`CCCCOC(=O)CSCC(=O)N1N=C(c2cccs2)CC1c1ccc(F)cc1` (stereo not given) gave B2AR ag 0.6, HNF4A DNA FP 0.2, Vif A3G 9.8%, Ecoli growth 0.728, Bfl-1 A1 inh -0.2, UCH37 inh -67.5 and LANA-H2B inh 2.8.
Screening O=C(c1c[nH]c(C(=O)C(Cl)(Cl)Cl)c1)c1ccccc1Br returned B2AR ag 2.9, HNF4A DNA FP 1.2, Vif A3G 6.9%, Ecoli growth 0.675, Bfl-1 A1 inh -0.2, UCH37 inh 2.7 and LANA-H2B inh 2.0.
`Cc1ccc(NC(=O)CCn2cnc3ccccc3c2=O)c(C)c1` gave B2AR ag -2.0, HNF4A DNA FP -1.4, Vif A3G -7.5%, Ecoli growth 0.695, Bfl-1 A1 inh -0.2, UCH37 inh 1.3 and LANA-H2B inh -1.8.
COc1cccc(C=NNc2nc3ccccc3s2)c1OC was read as B2AR ag -4.3, HNF4A DNA FP 0.0, Vif A3G -6.3%, Ecoli growth 0.691 and UCH37 inh 2.5.
For CCN1C(N(C)C)=NC[C@@H]1Cc1ccccc1 the results were B2AR ag 0.9, HNF4A DNA FP -6.9, Ecoli growth 0.739, Bfl-1 A1 inh -0.7, UCH37 inh -2.6 and LANA-H2B inh -6.8.
`O=C(CCC(=O)Nc1ccccc1Cl)NNC(=S)Nc1ccccc1C(F)(F)F` gave B2AR ag -6.8, HNF4A DNA FP -5.6, Ecoli growth 0.686, Bfl-1 A1 inh -0.4, UCH37 inh 4.7 and LANA-H2B inh 2.2.
For O=C(Cc1ccccc1)NNC(=O)C1CC=CCC1 (stereo not given) the results were B2AR ag -0.3, HNF4A DNA FP 1.2, Ecoli growth 0.645, Bfl-1 A1 inh 0.3, UCH37 inh 1.6 and LANA-H2B inh -4.2.
Screening CCO[C@@H]1OC(C(=O)N2CCOCC2)=C[C@H](C(C)(C)C)[C@H]1CCCO returned B2AR ag -3.9, HNF4A DNA FP -1.9, Bfl-1 A1 inh 0.9, UCH37 inh 1.5 and LANA-H2B inh -0.7.
Screening CC(=O)Nc1ccc(S(=O)(=O)Nc2ccc(S(=O)(=O)N3CCCCCC3)cc2)cc1 returned B2AR ag -5.6, HNF4A DNA FP -1.5, Vif A3G 1.1%, Ecoli growth 0.712, Bfl-1 A1 inh 0.5, UCH37 inh -0.4 and LANA-H2B inh 2.0.
For NC(=S)NNC(=O)[C@@H]1CCCC[C@@H]1C(=O)O the results were B2AR ag -0.7, HNF4A DNA FP 0.1, Vif A3G -3.5%, Ecoli growth 0.641, Bfl-1 A1 inh 0.8, UCH37 inh 4.3 and LANA-H2B inh -1.0.
`CCC(C)(C)n1nnnc1C(c1cccc(C#N)c1)N1CCN(c2cccc(C)c2C)CC1` (stereo not given) gave B2AR ag 2.8, HNF4A DNA FP -5.3, Vif A3G -9.6%&-2.2%, Ecoli growth 0.707, Bfl-1 A1 inh 0.0, UCH37 inh 0.9 and LANA-H2B inh 1.3.
Screening CC(C)=CCC/C(C)=C/C=N/NC(=O)c1ccccc1[N+](=O)[O-] returned B2AR ag 2.1, HNF4A DNA FP 2.8, Vif A3G 32.1%, Bfl-1 A1 inh -0.7 and LANA-H2B inh 3.2.
Screening COc1cccc(CC2(CO)CCCN(Cc3sc(N4CCCC4)nc3Cl)C2)c1 (stereo not given) returned B2AR ag 2.3, HNF4A DNA FP -6.0, Vif A3G -3.0%, Ecoli growth 0.69, Bfl-1 A1 inh 1.7, UCH37 inh 3.5 and LANA-H2B inh -0.6.
O=c1c([N+](=O)[O-])c(NC2CCCCC2)c2ccccc2n1-c1ccccc1 was read as B2AR ag -10.1, HNF4A DNA FP 0.7, Vif A3G -2.5%, Ecoli growth 0.702, Bfl-1 A1 inh 0.0, UCH37 inh 7.4 and LANA-H2B inh -4.8.
For COc1ccccc1N1CCN(C(=O)c2cc3ccccc3[nH]2)CC1 the results were B2AR ag 3.7, HNF4A DNA FP -0.5, Ecoli growth 0.639, Bfl-1 A1 inh -0.2, UCH37 inh 1.9 and LANA-H2B inh -4.9.
Screening CNS(=O)(=O)c1ccc(Cl)nc1 returned B2AR ag 18.0, HNF4A DNA FP 1.5, Vif A3G 3.2%, Ecoli growth 0.714, Bfl-1 A1 inh -0.2, UCH37 inh -1.5 and LANA-H2B inh -1.7.
`CC(C)OCCCNC(=O)c1c(N)n(/N=C/c2ccccn2)c2nc3ccccc3nc12` gave B2AR ag -3.6, HNF4A DNA FP 2.3, Vif A3G -8.9%, Bfl-1 A1 inh -0.1 and LANA-H2B inh 7.0.
Screening CC(=O)Nc1ccc(OCc2ccc3c(c2)OCO3)cc1 returned B2AR ag -23.4, HNF4A DNA FP -0.1, Ecoli growth 0.661, Bfl-1 A1 inh -7.9, UCH37 inh 0.9 and LANA-H2B inh 2.0.
`CCC1CCCCN1C(=S)NC(=O)c1cccs1` (stereo not given) gave B2AR ag 1.2, HNF4A DNA FP -0.2, Vif A3G -6.6%, Ecoli growth 0.646 and UCH37 inh 0.8.
Screening Cc1ccc(NC(=O)Nc2ccc(F)c(Cl)c2)cc1 returned B2AR ag -2.3, HNF4A DNA FP -0.3, Vif A3G -0.6%, Ecoli growth 0.616, Bfl-1 A1 inh -1.5, UCH37 inh 1.4 and LANA-H2B inh -2.0.
Screening CC1Cc2nc(SCC(=O)Nc3ccc4c(c3)OCCO4)n(C)c(=O)c2S1 (stereo not given) returned B2AR ag 6.7, HNF4A DNA FP 4.2, Vif A3G 10.3%, Ecoli growth 0.654, Bfl-1 A1 inh 0.5, UCH37 inh 6.3 and LANA-H2B inh -3.3.
`Cc1ccc(C)c(Cn2nnc3c(=O)[nH]c(C4CCN(C(=O)c5ccco5)CC4)nc32)c1` gave B2AR ag -7.6, HNF4A DNA FP 2.5, Ecoli growth 0.66, Bfl-1 A1 inh 1.1, UCH37 inh 6.1 and LANA-H2B inh -2.8.
CCOc1ccccc1OCCCC(=O)N1CCN(S(=O)(=O)c2ccc(C)cc2)CC1 was read as B2AR ag -4.6, HNF4A DNA FP -3.7, Vif A3G 0.6%, Ecoli growth 0.673, Bfl-1 A1 inh 0.5, UCH37 inh -1.8 and LANA-H2B inh -0.3.
COC(=O)c1ccc(C(NC(=O)OCc2ccccc2)/C(F)=C/[C@@H](C)C(=O)O)cc1 (stereo not given in full) was read as B2AR ag -2.3, HNF4A DNA FP 0.5, Bfl-1 A1 inh -1.3, UCH37 inh 1.7 and LANA-H2B inh 2.9.
CC(C)(C)OC(=O)N1CCCC(C(=O)Nc2ccc(C(=O)NCc3ccccc3)cc2)C1 (stereo not given) was read as B2AR ag -2.7, HNF4A DNA FP -6.8 and Vif A3G 12.8%.
Screening CC(=O)Nc1ccc(-c2cn3c(n2)SCC3)cc1 returned B2AR ag 60.2*, HNF4A DNA FP 0.1, Vif A3G 0.0%, Ecoli growth 0.636, Bfl-1 A1 inh 0.7, UCH37 inh -0.1 and LANA-H2B inh 3.8.
